Vaccinia Venus: qHTS for Stage-Specific Inhibitors of Vaccinia Orthopoxvirus: Venus Reporter Primary qHTS; Vaccinia virus Venus reporter expression, fluorescence; Potency, µM (top dose mostly 36.5 µM), inactives show at the top dose activity change, negative = inhibition, hits mostly inhibitors; 330,000 tested, 0.46% active; AID 720580, 2013; active means well fitted inhibition curve with a large enough effect; inconclusive means small, poorly fitted or top-dose-only effect; inactive means no such curve, though single readings can be large or run the other way; tested in A549 cells; further: nearly all actives have a fitted effect of over 30% in size; inactives centre near -10
VACV mCherry inh: qHTS for Stage-Specific Inhibitors of Vaccinia Orthopoxvirus: mCherry Reporter Primary qHTS | Potency, µM (highest dose often 36.5 µM), for the others: at the top dose activity change, negative = inhibition, actives largely listed as inhibitors | Vaccinia virus mCherry reporter infection, fluorescence; about a quarter of the inactives have no number | 310,000 tested, 0.63% active | AID 720579, 2013; active = well fitted inhibition curve with a large enough effect; inconclusive = small, poorly fitted or top-dose-only effect; inactive = no such curve, though single readings can be large or run the other way; tested in A549 cells; further: nearly all actives have a fitted effect of over 35% in size; inactives centre near -10
Numbers without * were called inactive; i = inactive; ? = inconclusive; . = not tested or not shown; & = joins results of further samples; ! = not active in a repeat; [ ] = dose if it differs, or a comment. On the % scale 0 is the no-effect control and ±100 the full control effect; potency means the concentration at half of the fitted maximal effect.

SMILES	Vaccinia Venus	VACV mCherry inh
Cc1ccc2[nH]c(C)c(CCNC(=O)c3cc4cc([N+](=O)[O-])ccc4oc3=O)c2c1	-4%	-16%
N#Cc1cccc(NC(=O)c2cc(C3CCCCN3S(=O)(=O)c3cccc4cccnc34)on2)c1 (stereo unspecified)	-12%	15%
CC(C)(C#N)Nn1cnnc1	-15%	.
CCC(C)Sc1cccc(-c2nc3cc(C)ccn3c2NC2CCCCC2)c1 (stereo unspecified)	?	7.9µM*!
O=c1c2ccccc2c(-c2ccc(F)cc2)nn1-c1ccc(C(F)(F)F)cc1	-19%	.
COc1cc(CNc2ccc3c(c2)OCCO3)ccc1OCC(N)=O	-4%	-16%
COCCNC(=O)CSc1nc2c(n1-c1ccccc1)CCCC2	-12%	-7%
O=C(CNC(=O)C1CCCCC1)NNC(=O)c1ccccc1Br	-13%	-2%
Cc1ccc(-n2c(C)cc(/C=N/NC(=O)CC3(C)OCCO3)c2C)c(C)c1	-22%	-25%
CCOC(=O)CC(N)c1ccc(OC)cc1 (stereo unspecified)	-13%	i
O=C(CN1C(=O)c2ccccc2C1=O)OCCOCCN=C1NS(=O)(=O)c2ccccc21	-6%	-25%
O=C(Nc1cc(F)ccc1F)c1cnn2c(C(F)F)cc(-c3ccccc3)nc12	-9%	-2%
CCOC(=O)N1CCN(CCCc2ccccc2)CC1	-5%	-12%
O=CN1CCN(C(C(=O)NC2CCCCC2)c2ccc(Cl)cc2)CC1 (stereo unspecified)	-8%	-14%
COc1cccc(OCCn2cc(/C=N/NC(=O)c3ccncc3)c3ccccc32)c1	-19%	-24%
CC(C)(COC(=O)c1ccccc1)N1CC2CCC(C1)O2	-10%	i
CCCN1C(=O)C(=O)c2cc(Cl)ccc21	-6%	-14%
Cc1ccc(NC(=S)c2nc3ccccc3[nH]2)cc1	-7%	i
Cc1ccc(Oc2nc3c(c(=O)n(Cc4ccccc4)c(=O)n3C)n2C)cc1C	-4%	i
O=C(O)Cn1nnc(-c2ccc(OCc3cccc(C(F)(F)F)c3)cc2)n1	-3%	-10%
CC(=O)N1CCC(N(CCN2CCOCC2)C(=S)Nc2cccc(C)c2)CC1	-3%	-22%
CC(=O)Nc1ccc(Sc2ncccc2C(=O)Nc2ccc(OC(F)(F)F)cc2)cn1	-10%	7%
Cc1ccc(C(C(=O)NC(C)(C)C)N(C(=O)CCC(=O)Nc2ccccn2)c2ccccc2F)cc1 (stereo unspecified)	-15%	i
CCOc1cccc(CNc2ccc(O)cc2)c1OCc1ccc(Cl)cc1Cl	-12%	.
C[C@H](CO)N1C[C@H](C)[C@@H](CN(C)S(=O)(=O)c2cn(C)cn2)Oc2ccc(NC(=O)Cn3cnnn3)cc2C1=O	-5%	i
O=C(Cc1ccc(-c2ccccc2)cc1)Nc1ccccn1	?	?
O=c1[nH]c2cc(Cl)c([N+](=O)[O-])nc2[nH]1	-27%	-15%
CC(c1ccccc1)[n+]1ccccc1 (stereo unspecified)	-13%	-26%
CN(Cc1ccccc1)C(=O)c1nc2ccccn2c1CN1CCCC1c1nccs1 (stereo unspecified)	-8%	i
Cc1ccc(/C=C/C(=O)O)cc1S(=O)(=O)Nc1ccc2c(c1)OCO2	1%	-15%
CC(C)C[C@H]1COc2cc(N3CC[C@H](O)C3)ccc2S(=O)(=O)N1	9%	4%
O=C(NNC(=O)c1ccccc1C(=O)O)c1ccc(S(=O)(=O)N2CCCCC2)cc1	-9%	-5%
CN1CCN(S(=O)(=O)c2ccc(Oc3cccc(C(F)(F)F)c3)nc2)CC1	-16%	-22%
Cc1ccc(S(=O)(=O)NCC(=O)N/N=C/c2ccc(Cl)cc2)cc1	-18%	i
Clc1ccc2nc3c4ccccc4cnn3c2c1	-14%	-3%
CCN1C(=O)[C@H]2[C@@H](c3ccc(C)cc3)N[C@]3(CCCN(Cc4ccccc4)C3=O)[C@H]2C1=O	-11%	i
COc1ccc(C(=O)OCC(=O)NC23CC4CC(CC(C4)C2)C3)c(OC)c1OC	-18%	-10%
c1cc2c(cc1-c1csc(NNC3=NCCCCC3)n1)OCCO2	-2%	0%
Cn1c(SCc2nc3cc(C(=O)O)ccc3c(=O)[nH]2)nnc1C(F)(F)F	-4%	i
COCc1cc(C)nc(SCC(=O)Nc2ccc3[nH]c(=O)[nH]c3c2)c1C#N	-16%	i
CC(=O)Nc1cccc(NC(=O)CSc2nccn2C2CCCC2)c1	-12%	-12%
O=[N+]([O-])c1ccccc1N=Nc1ccc(O)cc1O	-18%	i
COc1ccc(NC(=S)N(CCCN2CCCCCC2)Cc2cccs2)cc1	-9%	-5%
Cc1ccc2scc(CN3CCCC3)c2c1	-6%	-16%
CCOc1cc(C(=O)NCc2nnc(SCC(=O)OC)n2C)cc(OCC)c1OCC	-1%	-16%
COC(=O)c1ccc(COc2ccccc2/C=N/NC(=O)c2cccnc2)cc1	-8%	-19%
COc1cccc2c(Nc3ccccc3C)cc(C)nc12	-27%	-4%
COc1ccc(NC(=O)CCCn2cnc3ccccc3c2=O)cc1	-12%	-11%
Cc1cc(=O)cc(C)n1-c1ccc(Br)cc1	-22%	-11%
COc1ccc(NC(=O)c2ccc3oc(=O)c(S(=O)(=O)c4ccc(C)cc4)cc3c2)cc1OC	-6%	-11%

Continuation.
SMILES	Vaccinia Venus	VACV mCherry inh
CN(C)c1ccc(-c2ccnc3c2CC(C)(C(=O)Nc2cccc(N(C)C)c2)O3)cc1 (stereo unspecified)	3%	3%
Cc1cnc(NC(=O)c2ccc3ncsc3c2)s1	-7%	i
O=C(COC(=O)CSc1cc(Cl)ccc1Cl)Nc1ncc(C(F)(F)F)cc1Cl	-11%	-15%
CC(NC(=S)Nc1c(Br)cccc1OC(F)F)C(C)(C)C (stereo unspecified)	1%	i
O=C(Nc1ccc(SC(F)F)cc1)C1=COCCO1	-10%	i
Cc1cccc(-c2ocnc2C(=O)Nc2ccccc2C(=O)N2CCCC2)c1	-19%	?
COC(=O)CN(c1ccccn1)S(=O)(=O)c1ccccc1	0%	-8%
CCCC(=O)Nc1ccc2nn(-c3ccc(CC)cc3)nc2c1	9%	-6%
O=C(CCc1nnc(CCCc2ccccc2)o1)NCCN1CCOC1=O	-13%	-4%
COc1ccc(C2(C)NC(=O)NC2=O)cc1OC (stereo unspecified)	1%	-13%
CC(C)(C)c1ccc(/C=C/C(=O)N2CCc3ccccc3C2)cc1	-13%	-12%
COC(=O)CCn1nc(-c2ccc(Cl)cc2)c2ccccc2c1=O	-6%	i
CNc1ccnc(-c2ccccc2CN(C)C)n1	-16%	-8%
COCOc1cc(O)c(C(=O)/C=C/c2ccccc2)c(OCOC)c1	7%	5%
COc1ccc(C(=O)CN2C(=O)NC(C)(c3ccc(C)cc3)C2=O)cc1OC (stereo unspecified)	-24%	.
Cc1ccc(CNc2oc(-c3cccs3)nc2C#N)cc1	-4%	i
CCOc1ccc(CNC(=O)c2ccc3c(c2)N(CC)CCS3)cc1	-5%&-11%	-21%
Cc1cc(C)c(C(=O)COC(=O)c2ccc([N+](=O)[O-])o2)cc1C	-2%	-11%
Cc1c(Cc2ccccc2)c(=O)oc2c(C)c(OC(C)C(=O)N[C@@H](Cc3ccccc3)C(=O)O)ccc12 (stereo partly specified)	-5%	-9%
COc1cccc(N2CCN(CC(=O)c3c[nH]c4ccc(OC)cc34)CC2C)c1 (stereo unspecified)	-26%	.
COCC(=O)Nc1sc2c(c1C(=O)OC)CCC(C)C2 (stereo unspecified)	-16%	i
CCCCCCCCN1C(=O)[C@H](CC(=O)NCC23CC4CC(CC(C4)C2)C3)C[C@@]2(C(=O)OC)CC(C)(C)CC=C12	?	?
CC(C)CN(C(=O)CN(C)CC(=O)Nc1ccccc1C#N)c1c(N)n(CC(C)C)c(=O)[nH]c1=O	-4%	0%
CC1CCCN(C(=O)c2cccc(S(=O)(=O)NCc3ccccc3)c2)C1 (stereo unspecified)	-14%	-10%
COc1cc([N+](=O)[O-])c2nc(C(=O)O)ccc2c1	-6%	-18%
CCCCOc1ccc(C2C(=O)N(C3CCCCC3)CC(=O)N2C2CCCCC2)cc1 (stereo unspecified)	0%	-10%
O=C(CCC(=O)OCC(=O)c1ccc(-c2ccccc2)cc1)Nc1cccc2cccnc12	3%	?
CCn1c(C)nc2cc(C(=O)OC(C(F)(F)C(F)F)C(F)(F)C(F)F)ccc21	-8%	-24%
CN1CCN(C(CNC(=O)C(=O)Nc2ccc3c(c2)OCO3)c2ccc(F)cc2)CC1 (stereo unspecified)	-13%	i
CCCCN(C)CCCNC(=O)CN1N=C(c2ccc(OC)cc2)CCC1=O	-2%	-11%
CC1=CS(=O)(=O)CC1Sc1nc2ccccc2[nH]1 (stereo unspecified)	-13%	-18%
CCOc1ccc(OCC)c(Nc2cc(C)nc3nc(C)nn23)c1	-20%	-25%
O=c1c2ccccc2nc(/C=C/c2ccc(Br)cc2)n1CCO	-12%[7.34 µM]	14%[7.34 µM]
COc1ccc([N+](=O)[O-])cc1N(CC(=O)NCCC1=CCCCC1)S(C)(=O)=O	-10%	-12%
O=C1C2C(C(=O)N1c1ccncc1)C1C=CC2C12CC2 (stereo unspecified)	-18%	?
CCc1cc(=O)oc2cc(C)cc(OCC(=O)N[C@@H](CSCc3ccccc3)C(=O)O)c12	-11%	-5%
CC1CC(NC(=O)c2c(O)nc3sccn3c2=O)CC(C)(C)C1 (stereo unspecified)	-20%	i
O=C(COC(=O)C1C2CC3OC(=O)C1C3C2)Nc1ccccc1 (stereo unspecified)	3%	-8%
COc1ccccc1NCC(=O)c1ccc(Cl)cc1	-4%	?
Cc1ccc2nc3sc(C(=O)NCc4ccco4)c(N)c3cc2c1	-15%	.
COc1cc2c(cc1NC(=O)c1cccnc1)oc1ccccc12	-30%	?
CCOC(=O)c1cc2c(=O)n3ccccc3nc2n(CCOC)c1=NC(=O)c1c(-c2ccccc2Cl)noc1C	-9%	-14%
CSc1nncn1/N=C/c1ccc([N+](=O)[O-])cc1	-9%	-6%
CCSc1oc(-c2ccco2)nc1S(=O)(=O)c1ccc(C)cc1	-13%	-23%
COc1ccc(CCNC(=O)c2ccc3c(c2)N(Cc2ccc(C)cc2)CCS3)cc1OC	-13%	-16%
COc1cc(CC(=O)Nc2cccc(SC)c2)cc(OC)c1OC	-6%	i
O=C(NCCN1CCC(n2c(=O)[nH]c3ccccc32)CC1)c1ccc(C(F)(F)F)cc1C(F)(F)F	-13%	-21%
Cc1ccc(C(C)C)c(OCC(=O)Nn2c(C)nc3ccccc3c2=O)c1	-9%	.
CCCCN(CCCC)C(=S)NC(=O)c1ccccc1Cl	-4%	-20%
O=C(COC(=O)C1CCN(S(=O)(=O)c2cccc3cccnc23)CC1)c1ccc([N+](=O)[O-])cc1	-21%	.

As a working copy, part of the list above.
SMILES	Vaccinia Venus	VACV mCherry inh
COc1ccc(CCNC(=O)c2ccc3c(c2)N(Cc2ccc(C)cc2)CCS3)cc1OC	-13%	-16%
COc1cc(CC(=O)Nc2cccc(SC)c2)cc(OC)c1OC	-6%	i
O=C(NCCN1CCC(n2c(=O)[nH]c3ccccc32)CC1)c1ccc(C(F)(F)F)cc1C(F)(F)F	-13%	-21%

Continued.
SMILES	Vaccinia Venus	VACV mCherry inh
CN1C(=O)/C(=C/C=C/c2ccco2)C(=O)NC1=S	58%[activator]	17%
COc1ccc(CNc2ncnc3onc(-c4ccc(F)cc4)c23)cc1	-4%	-4%
COc1cccc(CC(=O)Nc2ccc(S(=O)(=O)Nc3nc(C)cc(C)n3)cc2)c1	-7%	0%
CN(C)c1nc2ncn(Cc3ccccc3)c2c(=O)[nH]1	-5%	-5%
O=C(CSc1nc2ccccc2c(=O)n1-c1ccccc1Cl)Nc1cccc(S(=O)(=O)N2CCOCC2)c1	-9%	i
CCN(C(=O)c1cccc(S(=O)(=O)N2CCCCC2)c1)C1CCS(=O)(=O)C1 (stereo unspecified)	-6%	i
CCOc1ccc(N(C)S(=O)(=O)c2ccc(-c3ccc(=O)[nH]n3)s2)cc1	-18%	-20%
COc1ccc(CNC(=O)C2(CC3CC(c4ccccc4)=NO3)CCN(C(=O)Cc3ccc(F)cc3)CC2)cc1 (stereo unspecified)	-24%	i
N#C/C(=C\c1ccc(O)c(O)c1)C(N)=O	-11%	-20%
C[N+](C)(C)C(Cc1ccccc1)C(=O)[O-] (stereo unspecified)	12%	3%

Of the compounds above, these contain a thiophene ring, fused or not:
SMILES	Vaccinia Venus	VACV mCherry inh
COc1ccc(NC(=S)N(CCCN2CCCCCC2)Cc2cccs2)cc1	-9%	-5%
Cc1ccc2scc(CN3CCCC3)c2c1	-6%	-16%
Cc1ccc(CNc2oc(-c3cccs3)nc2C#N)cc1	-4%	i
COCC(=O)Nc1sc2c(c1C(=O)OC)CCC(C)C2 (stereo unspecified)	-16%	i
Cc1ccc2nc3sc(C(=O)NCc4ccco4)c(N)c3cc2c1	-15%	.
CCOc1ccc(N(C)S(=O)(=O)c2ccc(-c3ccc(=O)[nH]n3)s2)cc1	-18%	-20%

(listing goes on)
SMILES	Vaccinia Venus	VACV mCherry inh
Cc1cc(C)cc(Nc2cnn(C34CC5CC(CC(CC(=O)O)(C5)C3)C4)c(=O)c2Cl)c1	-2%	-13%
COc1ccccc1C(=O)Nc1nc2ccc(S(=O)(=O)N3CCCC3)cc2s1	-7%	1%
Cc1ccc(-n2cc(C(=O)c3ccc(F)cc3)nn2)cc1Cl	-28%	.
CN(CC(=O)Nc1ccccc1Cl)C(=O)COC(=O)C1CCN(c2ccc(C(F)(F)F)cn2)CC1	-2%	-12%

Hits appear at their usual frequency; about 0.82% have a hit in one of these screens.
